Screening data: PubChem, several laboratories
MT1-MMP act inh: blockers of MT1-MMP proenzyme processing, primary screen, HT1080 RFP-PRO-GFP cells, GFP/RFP fluorescence | Matrix metalloproteinase-14 (Homo sapiens), P50281 | GFP/RFP ratio fluorescence, overnight; percent of plate control window, DMSO zero | actives 0.061% (n = 360,000) | GFP/RFP ratio change, % at 20 µM;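 active = GFP/RFP ratio change of at least 30% with cell ATP level not reduced by more than half and red fluorescence within 50% of control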; note: strong numbers were not always called active
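Test system: HT1080 cells expressing an RFP-PRO-GFP fluorescent reporter construct / Compound dosing: single-point 20 µM compound, 1% DMSO / Schedule: cells overnight before dosing, compound overnight, 37 °C, 5% CO2 / Evaluation: GFP/RFP fluorescence ratio / Control set: DMSO and RFP-L50D-GFP cell wells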
CSC inhib: cancer stem cell viability inhibitors, primary screen, luminescence | cancer stem cell-like cells viability | inhibition, % at 7.5 µM | actives 1.1% (n = 300,000);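 active = mean at 75% or more and at least half the replicates too; inconclusive = mean and replicates disagree; tested in HMLE shEcad cells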;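 note: 0% = median of negative and 100% = median of positive control wells; the first replicate is given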
Rce1 inh: yeast Rce1p protease inhibitors, primary screen, biochemical, fluorescence, cell-free homogeneous. CAAX prenyl protease 2 (Saccharomyces cerevisiae (strain ATCC 204508 / S288c)), Q03530. actives 0.27% (n = 290,000). calls only. yeast membranes, quenched prenylated peptide cleavage fluorescence;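 active = fall in fluorescence gain of 50% or more versus controls, with final raw signal at or below 3038400; inconclusive = same 50% fall but final raw signal above 3038400; inactive = fall in fluorescence gain under 50%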;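 note: plate controls were neutral control wells for no effect and wells lacking membranes for full effect; tested at 10 µM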
HIV Env fusion: inhibitors of HIV-1 Env-driven cell-cell fusion, primary screen, HeLa-JRFL effector, CEM21 target cells, luciferase; actives 1.1% (n = 360,000); inhibition, % at 12.3 µM;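 active = mean replicate inhibition score of at least 50 and every replicate individually at or above 50; inconclusive = only one of the two criteria met; inactive = mean below 50 and not all replicates reaching 50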;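 note: 0% = plate neutral controls and 100% = maraviroc near 300 nM; one replicate is shown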
Yeast UUG start: modulators of yeast start codon fidelity, primary screen, whole organism, S. cerevisiae, single point, plate reader. S. cerevisiae UUG-firefly luciferase reporter, luminescence/redox ratio. activity score, % at 18.7 µM. actives 0.13% (n = 350,000);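 active = replicate mean at a twofold rise or more, about +100% in these data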;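 note: firefly luciferase made from a UUG start codon reports start codon fidelity; reporter light over untreated wells divided by growth signal over untreated wells; some hits fall short of that in this replicate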
eIF4H inh: human eIF4H binding inhibitors, primary screen, translation initiation inhibitor project, biochemical, uHTS, fluorescence polarization. Eukaryotic translation initiation factor 4H (Homo sapiens), Q15056. eIF4H fluorescence polarization binding assay. inhibition, % at 35 µM. actives 0.94% (n = 290,000);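 active = 50% or more with normal probe brightness, or confirmed in later tests; inconclusive = above 50% with abnormal brightness, or retests that disagree; inactive = below 50% or failed in later tests; about a fifth of its hits are not listed in these tables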;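 note: calls also rest on retests at 20 µM and on dose response follow-up; 0% = protein and probe with vehicle and 100% = probe without protein; strong numbers were not always called active; many hits fall short of the cut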
PABP FP inh: PABP poly(A) RNA binding inhibitors, primary screen, biochemical, fluorescence polarization, uHTS; inhibition, % at 35 µM; actives 1% (n = 290,000); AID 2014, 2009;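 active = 50% or more with normal probe brightness, or confirmed in later tests; inconclusive = above 50% with abnormal brightness, or retests that disagree; inactive = below 50% or failed in later tests; about a fifth of its hits are not listed in these tables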;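 note: calls also rest on retests at 20 µM and on dose response follow-up; controls were probe without protein and protein plus probe with vehicle; some compounds called inactive have numbers as strong as hits; many hits fall short of the cut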
Target sequence (P11940 whole entry, looked up): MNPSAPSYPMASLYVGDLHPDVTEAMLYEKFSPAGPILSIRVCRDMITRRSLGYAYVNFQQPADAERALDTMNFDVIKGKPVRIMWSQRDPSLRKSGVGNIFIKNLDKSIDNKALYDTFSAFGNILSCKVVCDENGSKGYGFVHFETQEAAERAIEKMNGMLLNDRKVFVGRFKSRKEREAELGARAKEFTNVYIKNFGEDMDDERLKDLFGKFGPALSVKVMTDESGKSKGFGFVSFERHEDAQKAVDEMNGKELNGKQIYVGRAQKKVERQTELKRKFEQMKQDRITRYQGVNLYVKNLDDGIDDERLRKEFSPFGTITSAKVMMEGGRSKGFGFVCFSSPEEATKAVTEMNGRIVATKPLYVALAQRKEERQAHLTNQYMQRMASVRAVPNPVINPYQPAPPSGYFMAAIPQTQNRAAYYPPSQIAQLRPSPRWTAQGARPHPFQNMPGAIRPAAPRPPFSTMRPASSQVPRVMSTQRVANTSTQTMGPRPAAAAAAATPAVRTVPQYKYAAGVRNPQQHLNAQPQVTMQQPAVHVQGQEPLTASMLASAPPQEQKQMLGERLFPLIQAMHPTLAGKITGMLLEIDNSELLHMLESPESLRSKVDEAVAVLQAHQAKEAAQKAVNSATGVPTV
eIF4H inh retest: recorded beside eIF4H inh, whose call it bears; inhibition, %; compound at 20 µM; confirmation average;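 mean of two retest wells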
PABP FP inh retest: second read-out of PABP FP inh, no call of its own (marks repeat the call); inhibition, %; compound at 20 µM; confirmation repeats;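 mean of two retest wells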
MT1-MMP act inh RFP: second read-out of MT1-MMP act inh, no call of its own (marks repeat the call); RFP signal change, %; measured here: RFP expression control read;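 0 = vehicle wells; hits needed this value within 50% of zero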
The depositor's hits bear a star; i = inactive; ? = inconclusive; . = not tested or not shown; & = joins results of further samples.

SMILES	MT1-MMP act inh	MT1-MMP act inh RFP	CSC inhib	Rce1 inh	HIV Env fusion	Yeast UUG start	eIF4H inh	PABP FP inh	others
COc1ccc(NS(=O)(=O)c2ccc(C)c(NC(=O)c3ccc(C)c(S(=O)(=O)N4CCOCC4)c3)c2)cc1	2	-4	15	i	20	2	2	8
COc1ccc(C)cc1NC(=O)CSc1nnc2ccc(-c3ccncc3)nn12	3	2	-3	i	8	-7	.	.
O=C(Nc1nc(-c2ccccn2)cs1)c1ccc(-c2ccccc2F)o1	-1	6	.	.	10	-18	.	.
O=C1CCCCN1CC(=O)N1CCCC(N2CCN(c3ccccc3F)CC2)C1 (stereo not given)	4	9	-6	i	-1	1	-2	2
O=C1N[C@@H](Cc2ccccc2)COC(=O)[C@@H](Cc2ccc(F)cc2)CC/C=C/C[C@H]1CC(=O)N(CCO)Cc1ccccc1	-1	-16	-4	.	-28	-8	.	.
Cc1nn(-c2ccccc2)c(N2CCCC2)c1/C=C1\N=C(c2ccc(OC(C)C)cc2)OC1=O	1	3	-10	i	-16	-7	?	48
O=C(Nc1ncccn1)c1cccc(F)c1	4	-1	-6	i	-9	-9	5	-2
CSCCC(NC(=O)COc1ccccc1)C(=O)N1CC(C)OC(C)C1 (stereo not given)	-2	2	-17	.	1	-14	.	.
Cc1ccc(S(=O)(=O)CCc2nnc(N)s2)cc1C	6	3	-13	i	0	-14	2	-10
CS(=O)(=O)N1CCC(C(=O)Nc2ccccc2Cl)CC1	6	3	-13	i	0	-20	0	0
CN(C)CCn1c2c(c(SCC(=O)Nc3ccc4c(c3)OCCO4)nc1=O)CCC2	0	8	-1	i	-2	-17	.	.
COc1ccc(OC)c(NC(=O)Cn2c(=O)oc3ccccc32)c1	-1	2	-5	i	.	-25	-1	3
COc1ccc2cc(C(c3nnnn3C3CCCC3)N3CCc4ccccc4C3)c(=O)[nH]c2c1 (stereo not given)	1	9	0	i	-75	6	2	41
Cc1cc(N2CCN(C)CC2)nc2ccc(NC(=S)N3CCOCC3)cc12	-3	-2	-9	i	1	-12	-12	7
Cc1ccc(S(=O)(=O)N(C)C[C@@H]2Oc3ccc(NC(=O)CCC(F)(F)F)cc3CC(=O)N([C@@H](C)CO)C[C@@H]2C)cc1	14	-5	64	.	.	-8&24	.	.
COC(=O)c1ccc(C2C(C(=O)Nc3ccc(C)cc3C)=C(C)Nc3ncnn32)cc1 (stereo not given)	-2	0	2	i	-25	-43	-9	8
Cc1ccc(NC(=O)c2cc(-c3ccco3)nc3ccccc23)cc1S(=O)(=O)N1CCOCC1	-1	2	-7	i	21	-10	66*	1.2*	eIF4H inh retest=102*;PABP FP inh retest=92*
CCCCCC(=O)N1C[C@@H](O)[C@H](n2cc(C3CC3)nn2)C[C@@H]1c1ccc(OC)cc1	-1	4	.	.	-123	1	.	.
S=C(NCc1ccco1)Nc1cccc(Cl)c1Cl	1	-9	-1	i	-6	-11	3	-5
COc1ccc(NC(=O)c2cc(-c3ccccc3)nc3c2cnn3C(C)C)c(OC)c1	6	-7	.	.	23	-15	.	.
C/C(=C\C(=O)O)CC(=O)O	4	5	-6	i	.	.	-11	10
COc1ccc(-c2ccc(C#N)c(SCC(=O)Nc3sc4c(c3C#N)CCC4)n2)cc1OC	-64	5	53	i	-14	-10	?	?
COc1c(Br)cc(Br)cc1C(=O)O	1	-5	-10	i	-29	1	-2	14
Nc1c(C(=O)OCC(=O)Nc2ccccc2Br)[nH]c(=O)[nH]c1=O	1	1	-19	.	22	.	.	.
CC1=C/C(=N\NC(=S)NCc2ccccc2)CC1	6	-1	-8	i	-22	.	2	12
O=C(CSc1nc2c(c(=O)n1-c1ccc(Cl)cc1)SCC2)N1CCCC1	-2	3	-5	i	2	-10	7	2
Cn1c(CN2CCN(C(=O)c3ccccc3Cl)CC2)nc2cc([N+](=O)[O-])ccc21	3	-1	-10	.	-8	-23	2	2
Cc1ccc(NC(=O)CCN2CCC(Cc3ccccc3)CC2)cc1	0	-3	17	i	-26	-7	-2	-4
COc1ccc(CCNC(=O)c2cc(-c3ccccc3OC)on2)cc1OC	0	-4	.	i	7	-18	-3	30
CN(c1ccccc1C(=O)NC1CC2CCC1C2)S(=O)(=O)c1ccccc1 (stereo not given)	-1	0	3	i	9	-3	-4	2
COc1cccc(OC)c1C(=O)Nc1cccc(-c2nc3ccccc3[nH]2)c1	-4	-6	-15	i	-25	.	-3	-3
COCCNC(=O)C(c1ccc(F)cc1)N(CCOC)C(=O)CCC(=O)Nc1nccs1 (stereo not given)	-4	1	-14	i	.	0	2	-2
O=C(CSc1nc2ccc(Cl)cc2[nH]1)NC1CCCC1	-2	-6	-7	i	18	-20	18	19
CCc1ccc(N(C(=O)c2snc(C(N)=O)c2N)C(C(=O)NCCC(C)C)c2c[nH]c3ccccc23)cc1 (stereo not given)	17	2	-5	i	118*	-15	-10	-5
CCOc1ccc(NC(=O)NC2CCOC(C)(C)C2)cc1 (stereo not given)	1	5	5	i	.	.	1	5
CC(C)(C)NC(=O)CN(Cc1ccc(F)cc1)C(=O)Cn1nnc(-c2ccc(F)cc2)n1	2	-1	0	.	17	8	6	9
CCN(CC(=O)NCc1cccs1)C(=O)COc1ccccc1C#N	-2	0	-25	.	6	-3	.	.
Cc1ccc(S(=O)(=O)N2[C@@H](c3ccc(Cl)cc3)C(C(=O)O)=CC[C@H]2c2cccc(Cl)c2)cc1	-2	-1	16	.	-1	-4	.	.
CC(C)CNS(=O)(=O)c1ccc(CCC(=O)N2CCN(c3ccccc3)CC2)cc1	-2	-4	-12	i	21	.	-11	-4
CC(=O)c1ccc(N2CCN(C(=O)Cc3ccccc3)CC2)c(F)c1	1	1	-9	i	-6	-9	-2	-7
COc1ccc(NS(=O)(=O)c2cc(NC(=O)c3nn(C)c(=O)c4ccccc34)ccc2OC)cc1	9	7	6	i	4	-10	5	-2
CCc1nc2c(OCc3ccc(F)c(F)c3)cccn2c1N(C)C(=O)C(C)C	-3	1	.	.	5	-15	.	.
CN(CC(=O)Nc1ccc(Cl)cc1)S(=O)(=O)c1cccc2cccnc12	1	-7	-12	i	31	-7	10	-9
Cc1nnc(SCC(=O)NC2CCCc3ccccc32)n1-c1ccccc1 (stereo not given)	1	-1	-7	i	-10	.	-5	9
O=C(NC1CCCCC1)C1(S(=O)(=O)c2ccc(Cl)cc2)CC1	-3	0	.	i	-14	-16	0	5
COC(=O)c1c(NC(=O)C(C)(C)C)csc1C	-3	0	-15	i	1	.	-5	-7
CC(C)C(NC(=O)c1ccc(C(C)(C)C)cc1)C(=O)O (stereo not given)	1	1	3	i	-46	-8	-3	-2
COc1ccccc1N1CCN(Cc2cc(=O)c(OCC(=O)Nc3ccccc3)co2)CC1	1	-6	2	i	.	-2	.	.
CC1=C(C(=O)N2CCOCC2)C(c2ccccc2F)NC(=O)N1 (stereo not given)	-2	0	-19	i	-10	.	1	7
COc1ccccc1CCc1nnc(CCC(=O)N(C)Cc2ccncc2C)o1	-4	-4	2	i	-5	.	-9	-11
O=c1[nH]c2ccc(NS(=O)(=O)c3ccc(F)c(Cl)c3)cc2[nH]1	.	.	-11	i	-4	-22	1	8
CCCc1cc(=O)c2ccc(OCC(C)=O)cc2o1	-2	4	4	i	6	-5	14	2
O=C(/C=C/c1cccc(F)c1)OCC(=O)N1CCc2ccccc21	1	0	1	.	4	-9	.	.
COc1cc(/C=N/NC(=O)c2cc(C)oc2C)ccc1OCc1ccccc1	1	0	-7	.	0	-18	-14	13
CCOCC(=O)Nc1c(C(=O)N2CCN(c3ncccn3)CC2)oc2ccccc12	2	6	-12	i	-2	1	-6	-1
C=CCn1c(N)c(C(=O)N2CCOCC2)sc1=S	-3	0	-4	i	-5	.	3	-3
Cc1cc(C=O)c(C)n1-c1ccc(N2CCOCC2)c([N+](=O)[O-])c1	-1	-2	-8	i	-48	.	82*	70*
COc1cc(/C=C/C(=O)O)cc(S(=O)(=O)NNC(=O)c2ccc3c(c2)OCO3)c1OC	1	3	6	.	-35	-17	.	.
COc1ccc(CCCNC(=O)CC#N)cc1OC	2	2	-14	i	.	-9	-1	9
Cc1ccc(S(=O)(=O)N2CCCCC2)cc1NC(=O)Cc1c[nH]c2ccccc12	-2	-7	0	i	.	.	-1	17
(listing goes on)
SMILES	MT1-MMP act inh	MT1-MMP act inh RFP	CSC inhib	Rce1 inh	HIV Env fusion	Yeast UUG start	eIF4H inh	PABP FP inh	others
COc1ccc(C(=O)COC(=O)c2ccc(Cl)nc2)cc1OC	6	8	.	.	-21	0	.	.
C/C(Cc1ccccc1)=N\NC(=O)CNC(=O)c1ccccc1Cl	3	6	7	i	-16	-31	2	-5
COc1ccc(CCn2c(C)cc(C(=O)CCl)c2C)cc1OC	-9	-5	47	i	1	.	1	-8
COC(=O)[C@@H]1C(c2c(OC)cc(OC)cc2OC)=NO[C@H]1C(=O)OC	3	5	-14	i	-17	1	-5	-11
Cn1cccc1C(=O)NC1CCCCC1	4	10	3	i	-15	-14	.	.
O=c1nc(Nc2cccc(Cl)c2)oc2cc(Cl)oc(=O)c12	-7	-1	-4	i	-3	-13	58	26*	eIF4H inh retest=24;PABP FP inh retest=75*
